Screening results as filed in PubChem BioAssay.
NOMO-1 viab: STK33 inhibitor candidate reducing NOMO-1 cell viability | NOMO-1 AML viability, CellTiter-Glo luminescence, 72 h | inhibition, % (no concentration beside the values) | actives 7.5% (n = 37,000) | AID 2330;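 active means most replicates above 80%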;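 further: wells of about 30 µL received 25 nL stock; 0% = median of vehicle wells and 100% = reference inhibitor level; the first replicate is given; inactives centre near 10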
Numbers without * were called inactive. An excerpt; count on the stated rates, not on these rows.

Screening C[C@H]1CN([C@@H](C)CO)C(=O)c2cccc(NC(=O)Nc3cccc4ccccc34)c2O[C@@H]1CN(C)S(=O)(=O)c1ccc(Cl)cc1 returned NOMO-1 viab 64.
For O=C1C(=O)N(CCCn2ccnc2)C(c2ccccc2)C1C(=O)c1cccs1 (configuration not stated) the results were NOMO-1 viab -15.
Screening CC1=C(C(=O)OCCc2ccccc2)C(c2ccc(N(C)C)cc2)NC(=S)N1 (configuration not stated) returned NOMO-1 viab 11.
Screening COC(=O)c1ccccc1NC(=O)NCc1ccc(C(=O)O)cc1 returned NOMO-1 viab -19.
Screening CCOC(=O)Cn1c2ccc(Cl)cc2c2nc3ccccc3nc21 returned NOMO-1 viab 20.
Screening Cc1noc(C)c1S(=O)(=O)Nc1cccc2c1O[C@@H](CN(C)C(=O)Nc1ccc3c(c1)OCO3)[C@@H](C)CN([C@@H](C)CO)C2=O returned NOMO-1 viab -5.
`C[C@H]1CN([C@@H](C)CO)C(=O)c2cc(NS(C)(=O)=O)ccc2O[C@H]1CN(C)CC1CC1` gave NOMO-1 viab 4.
Screening CC(=O)Nc1nc(-c2ccccc2)nc(-c2ccccc2OC(C)=O)n1 returned NOMO-1 viab 7.
C[C@H](CO)N1C[C@H](C)[C@@H](CN(C)S(=O)(=O)c2cn(C)cn2)Oc2c(cccc2N(C)C)C1=O was read as NOMO-1 viab 9.
Screening C[C@@H]1CN([C@H](C)CO)C(=O)c2cccc(NC(=O)c3ccc(-c4nccs4)cc3)c2O[C@H]1CN(C)C(=O)Nc1cccc2ccccc12 returned NOMO-1 viab 23.
O=C(NCCO)c1ccc(N2C(=O)c3ccccc3C2=O)cc1 was read as NOMO-1 viab -1.
For CCOc1ccc(OCC(=O)Nc2cccc(C(=O)O)c2)cc1 the results were NOMO-1 viab 21.
C[C@@H]1CN([C@@H](C)CO)C(=O)c2cccc(NC(=O)C3CCCCC3)c2O[C@H]1CN(C)C(=O)NC1CCCCC1 was read as NOMO-1 viab 6.
Screening O=C(Cn1cnc2scc(-c3cccc([N+](=O)[O-])c3)c2c1=O)Nc1ccc(F)c(Cl)c1 returned NOMO-1 viab 31.
Screening C[C@@H]1CN([C@H](C)CO)C(=O)c2cccc(NC(=O)c3ccc(-c4nccs4)cc3)c2O[C@@H]1CN(C)Cc1ccc2c(c1)OCO2 returned NOMO-1 viab 17.
For C[C@@H]1CN([C@H](C)CO)C(=O)c2cccc(NC(=O)c3nc4ccccc4s3)c2O[C@H]1CN(C)Cc1ccc(C(F)(F)F)cc1 the results were NOMO-1 viab 101*.
`COc1ccc(Cl)cc1N(CC(=O)Nc1ccc(Br)cc1F)S(C)(=O)=O` gave NOMO-1 viab -15.
Screening COc1ccc(S(=O)(=O)Nc2cccc3c2O[C@H](CN(C)Cc2ccc(C(F)(F)F)cc2)[C@H](C)CN([C@H](C)CO)C3=O)cc1 returned NOMO-1 viab 29.
Screening O=C(Cn1cnc([N+](=O)[O-])n1)Nc1ccc(N2CCOCC2)c(Cl)c1 returned NOMO-1 viab 41.
`O=C(NCc1ccccn1)c1cc(-c2cccnc2)nc2ccc(Br)cc12` gave NOMO-1 viab 13.

Quoted at random: two records from the list.
Screening C[C@H]1CN([C@@H](C)CO)C(=O)c2cccc(NC(=O)Nc3cccc4ccccc34)c2O[C@@H]1CN(C)S(=O)(=O)c1ccc(Cl)cc1 returned NOMO-1 viab 64.
Screening CCOC(=O)Cn1c2ccc(Cl)cc2c2nc3ccccc3nc21 returned NOMO-1 viab 20.

New compounds follow
For C[C@@H]1CCCCO[C@H](CN(C)C(=O)Nc2ccc(F)cc2)[C@@H](C)CN([C@H](C)CO)C(=O)c2cc(NC(=O)Nc3ccc4c(c3)OCO4)ccc2O1 the results were NOMO-1 viab 4.
For Cc1cc(NC(=O)CN(c2ccc(Cl)cc2)S(C)(=O)=O)ccc1Br the results were NOMO-1 viab 23.
COc1ccc(NC(=O)Nc2ccc3c(c2)CC(=O)N([C@H](C)CO)C[C@H](C)[C@H](CN(C)S(=O)(=O)c2ccc(Cl)cc2)O3)cc1 was read as NOMO-1 viab 122*.
O=c1c(-c2nn[nH]n2)coc2ccccc12 was read as NOMO-1 viab 31.
Nc1nc(-c2ccco2)nn1C(=O)c1ccco1 was read as NOMO-1 viab -7.
Screening CC(=O)c1ccc(O[C@@H]2O[C@H](CO)[C@@H](O)[C@H](O)[C@H]2O)c(/C=C/C(C)(C)O)c1 returned NOMO-1 viab 27.
COc1ccc(S(=O)(=O)Nc2ccc3c(c2)C(=O)N([C@@H](C)CO)C[C@H](C)[C@@H](CN(C)C(=O)Nc2ccc(F)cc2)O3)cc1 was read as NOMO-1 viab 3.
C=C1CCC2(C(=O)OC3OC(CO)C(O)C(O)C3O)CCC3(C)C(=CCC4C5(C)CC(O)C(OC6OCC(O)C(O)C6OC6OC(CO)C(O)C(O)C6O)C(C)(CO)C5CCC43C)C2C1 (configuration not stated) was read as NOMO-1 viab 15.
For C[C@@H]1CN([C@H](C)CO)C(=O)c2cc(NS(=O)(=O)c3ccccc3)ccc2O[C@@H]1CN(C)CC1CC1 the results were NOMO-1 viab -12.
For Cc1cccc(OCC(=O)Nc2ccccc2C(=O)NC2CCCCC2)c1 the results were NOMO-1 viab 7.
Screening C[C@H]1CN([C@@H](C)CO)C(=O)c2cccc(NS(=O)(=O)c3ccc(F)cc3)c2O[C@H]1CN(C)C(=O)Nc1ccc(F)cc1 returned NOMO-1 viab -4.
For CNC[C@@H]1OCCCC[C@@H](C)Oc2ccc(NC(=O)c3ccncc3)cc2C(=O)N([C@H](C)CO)C[C@@H]1C the results were NOMO-1 viab -11.
`C[C@@H]1CN([C@H](C)CO)C(=O)c2cc(NC(=O)Nc3ccccc3)ccc2O[C@H]1CN(C)C(=O)Nc1cccc2ccccc12` gave NOMO-1 viab -3.
Screening S=c1[nH]nc(Cn2c(-c3ccccn3)nc3ccccc32)n1-c1cc(Cl)cc(Cl)c1 returned NOMO-1 viab -6.
`CC(C)[C@@H]1NC(=O)[C@H](Cc2ccccc2)NC(=O)[C@@H](CC(=O)O)NC(=O)CNC(=O)[C@H](CCCN=C(N)N)NC1=O` gave NOMO-1 viab -21.
Screening C[C@@H]1CN([C@H](C)CO)C(=O)c2cccc(NS(=O)(=O)c3ccccc3)c2O[C@@H]1CN(C)S(=O)(=O)c1cn(C)cn1 returned NOMO-1 viab 0.
For COc1ccc(C(C)=O)cc1CSc1nnc(-c2ccc(Br)cc2)n1-c1ccccc1 the results were NOMO-1 viab 16.
Screening O=C(NCCN1CCOCC1)c1cc2ccccc2o1 returned NOMO-1 viab -20.
`C[C@@H]1CN([C@@H](C)CO)C(=O)c2cccc(NC(=O)C3CCCCC3)c2O[C@H]1CN(C)S(=O)(=O)c1ccc(Cl)cc1` gave NOMO-1 viab 7.
C[C@@H]1CCCCO[C@@H](CN(C)Cc2ccncc2)[C@@H](C)CN([C@H](C)CO)C(=O)c2cc(NS(C)(=O)=O)ccc2O1 was read as NOMO-1 viab 5.
N#Cc1sc2nc(-c3ccncc3)ccc2c1N was read as NOMO-1 viab 24.
COC(=O)C1=COC(OC2OC(CO)C(O)C(O)C2O)C2C1C(O)CC2(C)OC(C)=O (configuration not stated) was read as NOMO-1 viab 5.
For COC(=O)c1ccc(C(=O)OC)c(NC(=O)c2cc(-c3ccccn3)nc3c(C)c(C)ccc23)c1 the results were NOMO-1 viab 32.
`C[C@@H]1CN([C@H](C)CO)C(=O)Cc2cc(NS(=O)(=O)c3cccs3)ccc2O[C@H]1CN(C)Cc1ccccc1` gave NOMO-1 viab 20.
Screening Cc1ccc(NC(=O)c2ccc(CSc3nnc(-c4ccc(NC(=O)c5ccccc5Cl)cc4)n3C)cc2)cc1 returned NOMO-1 viab 20.
`Cc1ccc(-n2c(SCC(=O)Nc3cccc(F)c3)nc3ccccc3c2=O)cc1` gave NOMO-1 viab 11.
For C[C@@H]1CN([C@@H](C)CO)C(=O)c2cccc(NS(=O)(=O)c3ccc(F)cc3)c2O[C@@H]1CN(C)Cc1ccncc1 the results were NOMO-1 viab -6.
CC(C)NC(=O)Nc1cccc2c1O[C@H](CN(C)Cc1ccc(Oc3ccccc3)cc1)[C@H](C)CN([C@@H](C)CO)C2=O was read as NOMO-1 viab -6.
`COc1ccc(NC(=O)Nc2cccc3c2O[C@H](CN(C)C(=O)Nc2ccc(C(F)(F)F)cc2)[C@H](C)CN([C@H](C)CO)C3=O)cc1` gave NOMO-1 viab 7.
CCn1c(SCC(=O)Nc2ccccc2OC)nnc1-c1ccc(N)cc1 was read as NOMO-1 viab -3.
Screening CCC(=O)Nc1nc2ccccc2n1CCN1CCOCC1 returned NOMO-1 viab 10.
`COC(=O)c1ccccc1NC(=O)CCSc1ccc(C)cc1` gave NOMO-1 viab -16.
C[C@@H]1CN([C@@H](C)CO)C(=O)c2cccc(NC(=O)c3cnccn3)c2O[C@H]1CN(C)C(=O)Nc1cccc2ccccc12 was read as NOMO-1 viab 13.
`O=C(CC1(O)C(=O)N(CCc2ccccc2)c2ccc(Cl)cc21)c1ccco1` (configuration not stated) gave NOMO-1 viab 38.
For C[C@H]1CN([C@@H](C)CO)C(=O)c2cc(NS(C)(=O)=O)ccc2O[C@H]1CN(C)CC1CCCCC1 the results were NOMO-1 viab -10.
For CCc1cc(C)cc(OCCNC(=O)c2ncn[nH]2)c1 the results were NOMO-1 viab 27.
For COc1ccc(CN(C)C[C@H]2Oc3ccc(NC(=O)Nc4ccc5c(c4)OCO5)cc3CC(=O)N([C@@H](C)CO)C[C@@H]2C)cc1 the results were NOMO-1 viab 1.
Screening Cc1ccnc(SCC(=O)Nc2cccc(C(F)(F)F)c2)n1 returned NOMO-1 viab 3.
Screening C[C@H](CO)N1C[C@H](C)[C@@H](CN(C)S(=O)(=O)c2ccccc2)Oc2ccc(N(C)C)cc2C1=O returned NOMO-1 viab 31.
Screening C[C@H]1CN([C@@H](C)CO)C(=O)Cc2cc(NC(=O)Nc3ccc(C(F)(F)F)cc3)ccc2O[C@H]1CN(C)Cc1ccc(-c2ccccc2)cc1 returned NOMO-1 viab 128*.

Structural class, the entries above with an NH in an aromatic ring.
O=c1c(-c2nn[nH]n2)coc2ccccc12 was read as NOMO-1 viab 31.
Screening S=c1[nH]nc(Cn2c(-c3ccccn3)nc3ccccc32)n1-c1cc(Cl)cc(Cl)c1 returned NOMO-1 viab -6.
For CCc1cc(C)cc(OCCNC(=O)c2ncn[nH]2)c1 the results were NOMO-1 viab 27.

Back to the main list, repeating the 2 entries before the break.
Screening C[C@H](CO)N1C[C@H](C)[C@@H](CN(C)S(=O)(=O)c2ccccc2)Oc2ccc(N(C)C)cc2C1=O returned NOMO-1 viab 31.
Screening C[C@H]1CN([C@@H](C)CO)C(=O)Cc2cc(NC(=O)Nc3ccc(C(F)(F)F)cc3)ccc2O[C@H]1CN(C)Cc1ccc(-c2ccccc2)cc1 returned NOMO-1 viab 128*.
`COc1ccc(-c2coc3cc(O)ccc3c2=O)c(OC)c1O` gave NOMO-1 viab 9.
For Cc1noc(C)c1NC(=O)Nc1ccc2c(c1)CC(=O)N([C@@H](C)CO)C[C@@H](C)[C@@H](CN(C)C(=O)Nc1ccc(C(F)(F)F)cc1)O2 the results were NOMO-1 viab -6.
Cc1ccc([N+](=O)[O-])cc1NC(=O)CN(C)S(=O)(=O)c1ccc(Br)cc1 was read as NOMO-1 viab -17.
Screening C[C@H]1CN([C@@H](C)CO)C(=O)Cc2cc(NC(=O)CCCCCC(=O)Nc3ccccc3N)ccc2O[C@@H]1CN(C)CC1CC1 returned NOMO-1 viab 21.
O=C(CNS(=O)(=O)c1ccccc1)Nc1cc(Cl)cc(Cl)c1 was read as NOMO-1 viab 9.
Screening COc1cc(O)c(Cc2ccccc2O)c(O)c1C(=O)CCc1ccccc1 returned NOMO-1 viab 114*.
Cc1cc(C)c2c(=O)[nH]c(SCC(=O)c3cccs3)nc2n1 was read as NOMO-1 viab -11.
C[C@@H]1CN([C@H](C)CO)C(=O)Cc2cc(NS(=O)(=O)c3cccs3)ccc2O[C@H]1CN(C)Cc1ccc(C(=O)Nc2ccccc2N)cc1 was read as NOMO-1 viab 71.
Cc1noc(C)c1NC(=O)N(C)C[C@H]1Oc2ccc(NC(=O)C3CC3)cc2C(=O)N([C@H](C)CO)C[C@@H]1C was read as NOMO-1 viab 12.
Screening C[C@@H]1CN([C@H](C)CO)C(=O)c2cc(NC(=O)Nc3ccc4c(c3)OCO4)ccc2O[C@@H]1CN(C)C(=O)Nc1ccccc1 returned NOMO-1 viab -6.
Screening COc1ccccc1NC(=O)CSc1ccccn1 returned NOMO-1 viab 7.
`C[C@H](CO)N1C[C@H](C)[C@H](CN(C)S(C)(=O)=O)Oc2ccc(NC(=O)NC3CCCCC3)cc2CC1=O` gave NOMO-1 viab 15.
`C[C@H](CO)N1C[C@H](C)[C@H](CN(C)Cc2ccc(C(=O)O)cc2)Oc2ccc(NS(=O)(=O)c3ccc(F)cc3)cc2C1=O` gave NOMO-1 viab -8.
For COc1ccc(NC(=O)CN(C)S(=O)(=O)c2ccc(C)cc2)cc1OC the results were NOMO-1 viab 2.
For Cc1cc(C)n(CC(O)Cn2c3ccccc3c3ccccc32)c(=O)n1 (configuration not stated) the results were NOMO-1 viab -10.
Screening COc1ccc(NC(=O)Nc2ccc3c(c2)C(=O)N([C@@H](C)CO)C[C@H](C)[C@@H](CN(C)C(=O)Nc2c(C)noc2C)O3)cc1 returned NOMO-1 viab 9.
COC(=O)c1ccc(NC(=O)CSc2ncnc3sc(C)c(C)c23)cc1 was read as NOMO-1 viab 42.
Screening COc1ccc(CN(C)C[C@@H]2Oc3ccc(NC(=O)Nc4cccc5ccccc45)cc3C(=O)N([C@H](C)CO)C[C@@H]2C)cc1 returned NOMO-1 viab -3.
`C[C@H](CO)N1C[C@H](C)[C@H](CN(C)S(=O)(=O)c2cccs2)Oc2c(NC(=O)c3ccc(-c4nccs4)cc3)cccc2C1=O` gave NOMO-1 viab 58.
`Cc1ccc(S(=O)(=O)NCC(=O)N2CCC(C)CC2)cc1` gave NOMO-1 viab 2.
